RecA splice inh: Mtb RecA intein splicing inhibition | P9WHJ3 | cell-free RecA intein splicing, fluorescence | inhibition, %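 (about 9 µM by stock and volumes)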 | hit rate 0.75% among 290,000 | AID 2221; in the data active = inhibition above about 30%; inconclusive = no clear call, values can overlap the other calls;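 also: 0% = vehicle wells and 100% = reference inhibitor control wells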
Target sequence (P9WHJ3 whole entry, looked up, canonical isoform): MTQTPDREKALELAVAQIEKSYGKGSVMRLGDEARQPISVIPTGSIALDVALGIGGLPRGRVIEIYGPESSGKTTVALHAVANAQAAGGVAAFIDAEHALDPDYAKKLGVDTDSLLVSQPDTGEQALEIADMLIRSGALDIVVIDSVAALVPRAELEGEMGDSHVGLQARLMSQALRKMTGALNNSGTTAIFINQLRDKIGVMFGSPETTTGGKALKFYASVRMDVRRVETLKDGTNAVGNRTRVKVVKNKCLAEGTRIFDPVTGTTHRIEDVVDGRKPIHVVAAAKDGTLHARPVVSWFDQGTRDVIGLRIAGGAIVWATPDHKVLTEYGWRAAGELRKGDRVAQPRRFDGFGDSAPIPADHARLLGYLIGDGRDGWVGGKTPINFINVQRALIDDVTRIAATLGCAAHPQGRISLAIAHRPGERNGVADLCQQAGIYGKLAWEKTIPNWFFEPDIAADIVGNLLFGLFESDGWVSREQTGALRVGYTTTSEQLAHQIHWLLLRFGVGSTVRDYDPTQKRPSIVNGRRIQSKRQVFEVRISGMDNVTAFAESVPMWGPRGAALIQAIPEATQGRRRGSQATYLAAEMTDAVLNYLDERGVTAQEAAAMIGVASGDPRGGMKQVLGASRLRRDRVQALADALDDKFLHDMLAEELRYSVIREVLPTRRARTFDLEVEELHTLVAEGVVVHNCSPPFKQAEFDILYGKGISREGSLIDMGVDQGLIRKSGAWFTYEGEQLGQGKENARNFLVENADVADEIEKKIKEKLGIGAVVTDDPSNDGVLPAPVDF
YopH inh: YopH (Yersinia) phosphatase inhibition; inhibition, %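 (about 10 µM by stock and volumes)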; AID 898; fluorescence Ex485/Em525; hit rate 0.16% among 140,000;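 active = inhibition of 50% or more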;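 also: controls were vehicle for no effect and minimum signal wells for full effect; inactives centre near -20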
Arbovirus inh: blocks arbovirus infection; arbovirus infection cell-based antiviral screen; inhibition, % at 10 µM; hit rate 0.37% among 200,000;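 active = inhibition from about 30%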;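 also: bluetongue infection of BSR cells; cell survival read as ATP light after 72 h; 0% = infected wells without compound and 100% = uninfected wells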
Mtb betalactam: beta-lactam sensitization of Mtb H37Rv; hit rate 0.27% among 330,000; inhibition, % at 25 µM; M. tuberculosis H37Rv growth with meropenem, percent inhibition; hits of this screen are not shown here;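 active = about 74% or more and at least 40 points above the plate without the antibiotic, then above 30% in a dose series; inconclusive = first-round hits that could not be retested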;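 also: growth measured after seven days incubation then overnight dye step; 0% = bacteria only wells and 100% = bacteria with antibiotic; twin plates without the antibiotic show which effects depend on it; some results filed as inactive read as strong as hits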
Mtb H37Rv: M. tuberculosis H37Rv growth inhibitors, H37Rv strain (AID 1626) | inhibition, % at 10 µM, or IC50 in µM where a hit was titrated | M. tuberculosis H37Rv growth inhibition; higher % means a stronger effect | hit rate 0.95% among 220,000;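 active = confirmed in a dose series; inconclusive = inhibition above 80% but not taken into the dose series; inactive = below 80% or under 30% at every dose of the series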;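 also: bacteria incubated seven days before Alamar blue readout; 0% = bacteria only wells and 100% = bacteria with antibiotic wells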
Arbovirus inh repeat: also measured in Arbovirus inh; calls as there; inhibition, %; measured here: 10K subset replicate screen; many hits read low in the repeat;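 first of two repeat runs on a subset; 0% = infected and 100% = uninfected wells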
* = called active by the depositor; ? = inconclusive; . = not tested or not shown; & = joins results of further samples. An excerpt; the hit share may differ from the screen's.

SMILES | RecA splice inh | YopH inh | Arbovirus inh | Mtb betalactam | Mtb H37Rv | others
CCCCn1c(N)c(-c2nc3ccccc3o2)c2c([N+](=O)[O-])nn(C)c(=O)c21 | 11 | -15 | -8 | -2 | 0%
COc1ccc(/C=N/Nc2ncnc3scc(-c4ccccc4)c23)cc1OC | -3.0 | -27 | -2 | -1 | 0%
Cc1cc(NC(=O)c2cc(-c3ccco3)on2)n(-c2ccccc2)n1 | 1.5 | 24 | -2 | 19 | 3%
O=C(CN1CCOCC1)Nc1ccc(F)cc1 | 2.2 | . | . | -4 | .
COC(=O)[C@@H]1C[C@]2(OC(=O)c3ccccc3)C=CC(=O)C[C@@H]2N1C(=O)OCc1ccccc1 | 56* | -32 | -40 | -6 | -7%
Cc1ccc(C)c(N(Cc2cc3ccc(C)cc3[nH]c2=O)C(=O)c2ccco2)c1 | -2.2 | . | . | -11 | 0%
CCN(CC(=O)NCc1ccc(Cl)cc1)C(=O)CSc1ccc(F)cc1 | 0.4 | . | . | -15 | .
COc1ccc(C2C(C(=O)N3CCN(c4ccccn4)CC3)CCC(=O)N2c2ccc(OC)cc2)cc1 (stereo unspecified) | -0.4 | . | 8 | -2 | 2%
O=C(c1ccc(Br)cc1)N(C1=NCCCCS1)c1ccccc1 | 2.4 | -34 | 0 | 2 | 2%
CCn1c(SCCOc2ccc(Cl)cc2)nnc1-c1cccs1 | 5.8 | -22 | 15 | 3 | -5%
Cc1ccc(C(C(=O)NCc2ccco2)N(CCc2ccccc2)C(=O)Cn2nnc3ccccc32)o1 (stereo unspecified) | . | 1 | 4 | . | -1%
Cc1cc(C)c(OCC(=O)NCC2CCCO2)c(C)c1 (stereo unspecified) | -1.1 | . | 6 | 11 | -13%
Cc1nn(-c2ccccc2)c(C)c1/C=N/NC(=O)CSc1nnc(-c2ccccc2)n1-c1ccc(Cl)cc1 | . | -29 | 7 | -5 | 15%
O=C(Nc1nnc(S(=O)(=O)N2CCCCC2)s1)c1ccc(Cl)cc1 | -0.8 | . | . | 12 | .
Nc1nonc1-n1nnc(C(=O)N/N=C/c2ccco2)c1CSc1ccccc1 | -2.4 | . | . | -7 | .
O=C(NCc1ccc2c(c1)OCO2)c1ccc(Br)s1 | 0.1 | . | . | 6 | 14%
CCCCNC(=O)c1ccccc1NC(=O)c1ccccc1N(C)S(C)(=O)=O | 2.2 | -34 | 8 | -9 | -8%
CC(=O)C1=C(c2ccccc2)OC(N)=C(C#N)C1c1ccc(O)cc1 (stereo unspecified) | -0.7 | -26 | -6 | -3 | -4%
CCC1CCC(C(=O)NC(C(=O)NCCCN2CCCCC2C)C(C)C)CC1 (stereo unspecified) | -2.8 | . | 4 | -10 | -1%
CC(=O)Nc1ccc(Cc2nc3c([nH]2)c(=O)n(C)c(=O)n3C)cc1 | 0.8 | . | . | 4 | -15%
Cc1cccc(C(=O)N2CCN(S(=O)(=O)N3CCCCC3)CC2)c1 | -1.1 | . | . | -3 | .
CC(C)C(=O)Nc1ccc([N+](=O)[O-])c(C(F)(F)F)c1 | 2.4 | . | 7 | -5 | 0%&1%
COc1ccc(-c2cc(C(=O)NCc3cccnc3)no2)cc1OC | -2.7 | -17 | -13 | -11 | -4%
c1ccc(CNc2c3ccccc3nc3ccccc23)cc1 | -42 | . | . | 7 | .
O=C1CCN(c2ccc([N+](=O)[O-])cc2F)CC1 | 1.6 | . | 11 | 8 | 5%
Cc1cccc(N2CCN(C(c3cccs3)c3nnnn3C(C)(C)C)CC2)c1C (stereo unspecified) | 11 | -31 | 14 | 4 | 1% | Arbovirus inh repeat=4
O=C(/C=C/c1ccccc1)N/C(=C/c1ccccc1)C(=O)Nc1cccc(C(=O)O)c1 | 5.4 | . | 2 | -10 | 0%
CCC(C)NC(=O)COc1ccc(S(=O)(=O)N2CCOCC2)cc1 (stereo unspecified) | 1.6 | -23 | 12 | 6 | -9%
O=C(CCc1ccc(O)cc1)c1c(O)cc(O)cc1O | -1.8 | . | . | -2 | -5%
COc1ccc2c(c1)c(=O)oc1c(C)c(OCc3ccc(C(=O)O)cc3)ccc12 | -1.0 | . | . | 62 | .
COc1ccc(C2c3ccc(O)cc3Oc3ncn4nc(-c5ccccn5)nc4c32)cc1 (stereo unspecified) | 0.8 | . | . | -6 | -7%
NS(=O)(=O)c1ccc(NC(=O)CN2CCCC2)cc1 | 0.4 | . | -3 | -8 | 2%
Cc1ccc2cc(C=O)c(N(C)C)nc2c1 | -1.4 | -3 | 2 | 8 | -4%
CC(C)c1ccc(S(=O)(=O)NCc2ccc3c(c2)OCO3)cc1 | -0.5 | . | . | -8 | .
N#CCCC(CCC#N)(CCC#N)c1cc[n+](CCc2ccccn2)cc1 | 1.2 | . | . | -6 | .
O=C(CN1CCOCC1)c1cccc2ccccc12 | 5.8 | 1 | -5 | 2 | 0%
O=C(Nc1ccc(Oc2ccccc2)cc1)C1CCN(c2c3c(nc4ncnn24)CCC3)CC1 | 0.2 | -44 | -14 | 2 | 10%
CC(C)CC1Nc2ccc(C(=O)NCc3ccc4c(c3)OCO4)cc2NC1=O (stereo unspecified) | 0.7 | . | . | -6 | .
O=C(N=C1SC2CS(=O)(=O)CC2N1Cc1ccccc1Cl)C1CC1 (stereo unspecified) | -1.4 | . | . | -3 | .
CN(C)C(=O)c1cc(C(=O)c2ccccc2C(F)(F)F)c[nH]1 | -0.1 | . | 15 | -1 | 0%
CCCCOc1ccc(CSc2n[nH]c(C)n2)cc1 | 1.9 | -7 | -1 | 1 | 4%
Cn1nnc(NC(=O)c2ccc(C(C)(C)C)cc2)n1 | -0.1 | -28 | -6 | 79 | -9%
CC(C)(C)NC(=O)C1Cc2ccccc2CN1C(=O)Nc1ccccc1Cl (stereo unspecified) | 2.6 | -37 | 4 | -5 | 2%
CCOc1ccc2cc(C3CC(c4ccco4)=NN3S(=O)(=O)c3ccccc3)c(Cl)nc2c1 (stereo unspecified) | 4.5 | -26 | -10 | 1 | -10%
COc1cc(C(CC(=O)N2CCCC2)c2c(OC)cc(OC)c3ccc(=O)oc23)cc(OC)c1OC (stereo unspecified) | -13 | . | . | -2 | -9%
CC(C)C(=O)OCc1cn(-c2ccc(Cl)c(Cl)c2)nn1 | 0.9 | . | 11 | -1 | -5%
N[C@@H]1CONC1=O | 1.4 | . | -2 | -6 | -8%&0%
S=c1[nH]nc(-c2ccco2)n1/N=C/c1ccc(Cl)cc1Cl | 0.2 | -25 | 7 | 4 | 7%
O=C(/C=C/c1cn(CC(O)CN2CCCCC2)c2ccccc12)c1ccccc1 (stereo unspecified) | 1.2 | . | . | . | 2.9µM*
COc1ccccc1C(=O)NNC(=O)c1cccc(Cl)c1 | -3.4 | . | 0 | 6 | 0%
CSc1nc2sc3c(c2c(=O)[nH]1)CCc1ccccc1-3 | 1.3 | -24 | -17 | -5 | 3%
CCCN1Cc2cccc(C(N)=O)c2C1=O | 2.3 | -28 | 4 | -7 | -8%
O=C(NCc1ccccn1)c1cn(CCc2ccccc2)nn1 | . | -36 | 1 | 6 | -1%
COc1ccc(S(=O)(=O)NNC(=O)c2csc(-n3nc(C)cc3C(F)(F)F)n2)cc1 | 6.9 | -28 | -10 | -2 | 5%
Cc1cccc(N2CCN(C(=O)N3CCOCC3)CC2)c1C | -2.7 | . | -15 | -3 | -4%
Cc1nc2ccc(NC(=O)c3ccc(Cl)c([N+](=O)[O-])c3)cc2s1 | -0.3 | -8 | 3 | -2 | 2%
COc1ccc(CN2CCCC(C(=O)Nc3cccc(-n4cccn4)c3)C2)cc1 (stereo unspecified) | 1.8 | . | . | -4 | .
COc1ccc(C(=O)N/N=C(\C)CC(=O)Nc2ccccn2)cc1OC | 17 | . | . | 8 | .
CCCC(=O)C1=C(O)C(C(=O)OC)C(C)(C)CC1=Nc1ccncc1 (stereo unspecified) | -1.0 | -41 | 7 | -5 | -1% | Arbovirus inh repeat=3
CC1CN(C(=O)c2cc3cc(F)ccc3[nH]2)CC(C)O1 (stereo unspecified) | -1.1 | . | . | 6 | .

Five entries from above, sorted by length of the SMILES, ascending.
SMILES | RecA splice inh | YopH inh | Arbovirus inh | Mtb betalactam | Mtb H37Rv | others
CCCN1Cc2cccc(C(N)=O)c2C1=O | 2.3 | -28 | 4 | -7 | -8%
COc1ccccc1C(=O)NNC(=O)c1cccc(Cl)c1 | -3.4 | . | 0 | 6 | 0%
CSc1nc2sc3c(c2c(=O)[nH]1)CCc1ccccc1-3 | 1.3 | -24 | -17 | -5 | 3%
CC1CN(C(=O)c2cc3cc(F)ccc3[nH]2)CC(C)O1 (stereo unspecified) | -1.1 | . | . | 6 | .
O=C(/C=C/c1cn(CC(O)CN2CCCCC2)c2ccccc12)c1ccccc1 (stereo unspecified) | 1.2 | . | . | . | 2.9µM*

Next entries.
SMILES | RecA splice inh | YopH inh | Arbovirus inh | Mtb betalactam | Mtb H37Rv | others
O=C(NCc1ccc(C(F)(F)F)cc1)C1CC(c2c(Cl)cccc2Cl)=NO1 (stereo unspecified) | 5.1 | -8 | -3 | -3 | 18%
CC(C(=O)Nc1ccccc1C(=O)N1CCOCC1)N(c1ccccc1)S(C)(=O)=O (stereo unspecified) | 0.8 | -14 | 1 | 2 | -9%
COc1ccccc1N1CCN(C2CCCN(C(=O)Cn3cccn3)C2)CC1 (stereo unspecified) | -6.7 | . | . | -10 | .
Nn1c(-c2ccc(O)cc2)nnc1-c1ccc(O)cc1 | 0.2 | . | . | 1 | .
O=C(NCC1CCN(S(=O)(=O)c2ccccc2)CC1)Nc1ccccc1 | -2.3 | . | . | -3 | 10%
COCCn1c(=NC(=O)CSCC(=O)Nc2cc(C)on2)sc2cc(C(=O)OC)ccc21 | 3.1 | -22 | 6 | -1 | -7%
COc1cc(NC(=O)c2ccc(OC)c([N+](=O)[O-])c2)ccc1NC(=O)c1ccco1 | 1.5 | . | . | -2 | -4%
O=C(NCC(=O)N1CCN(c2ccccc2)CC1)c1cccs1 | -0.2 | . | . | 3 | .
Cc1nc(N)[nH]c(=O)c1CCC(=O)OCC(C)C | -0.8 | 21 | 1 | -3 | -8%
COc1ccccc1-[n+]1c(C)cc(/C=C2\Sc3ccccc3N2C)cc1C | -14 | . | . | 100 | ?
O=C(Nc1ccc(Cl)cc1)[C@@H]1[C@@H]2C(=O)N(c3cccc(F)c3)C(=O)[C@@H]2[C@H]2C=CC=NN21 | -2.5 | . | . | -3 | -10%
O=C(CN1CCNC(=O)C1)NCCc1ccc(Cl)cc1Cl | -0.9 | . | 2 | -2 | 4%
COc1ccc(OC)c(C(O)C(C)N)c1 (stereo unspecified) | 3.1 | -52 | 1 | 1 | .
CC(=O)c1cccc(NC(=O)c2cc3ccccn3n2)c1 | -1.0 | 1 | -4 | 0 | . | Arbovirus inh repeat=-3
COc1cc2c(cc1OC)CN(C(=O)CCCN1C(=O)c3ccccc3C1=O)CC2 | 0.2 | -48 | 2 | -3 | -4%
COc1cc(OC)cc(C(=O)NCCSCc2ccc(Cl)cc2)c1 | 8.6 | . | . | 0 | .
O=C(Nc1cccc(-n2cnnn2)c1)c1cccc(Cl)c1 | 2.1 | . | . | 0 | .
COc1ccc(N2CCN(C(=O)Cn3c(=O)[nH]c4ccccc4c3=O)CC2)cc1 | 0.3 | . | -6 | 2 | -6%
COc1ccccc1-n1nnnc1SCC(=O)Nc1ccccn1 | 2.9 | 0 | -1 | -13 | -10%
CC(=O)Nc1ccc(Nc2ccc3nonc3c2[N+](=O)[O-])cc1 | -2.0 | . | 4 | 1 | -1%
O=C(O)c1cc(S(=O)(=O)NC(Cc2c[nH]c3ccccc23)C(=O)O)ccc1Cl (stereo unspecified) | 4.2 | . | . | 3 | .
CCOC(=O)N1CCC(N2Cc3cccc(C(=O)Nc4ccc(OC)c(OC)c4)c3C2=O)CC1 | -0.1 | -19 | 7 | 1 | 15% | Arbovirus inh repeat=-6
COc1ccc(CCNC(=S)Nc2cccc(C)c2)cc1 | 5.9 | -28 | 9 | -6 | 30%
CNc1c(NS(=O)(=O)c2ccc(OC)c(Cl)c2)c(=O)oc2ccccc12 | -1.3 | . | . | -7 | .
C=CCn1c(=O)c(C(=O)NCCNCC)c(O)c2ccccc21 | -1.4 | -10 | 0 | -2 | 2%
CCC(C)[C@H](NC(=O)N1CCCC1)C(=O)O (stereo partly specified) | -1.5 | -9 | 1 | 15 | -7%
COc1ccc2cc(CCC(C)=O)ccc2c1 | 2.2 | . | -4 | -1 | 3%
CCCCOc1ccc(-c2ncc([N+](=O)[O-])cn2)cc1 | 2.2 | . | . | -4 | 8%
CCC(=O)N1c2ccccc2[C@@H](N(C(C)=O)c2ccccc2)C[C@H]1C | -1.9 | -38 | -17 | -5 | 5%
COc1cccc(C(=O)NN2CCOCC2)c1 | 0.1 | . | . | -1 | .

High-throughput results (PubChem BioAssay)
